Source: PubChem
rRNA inh HTS – inhibits bacterial ribosomal RNA function over humanized ribosomes. GFP signal change (wild-type ribosome), % (concentration not given with the values). E. coli WT GFP vs humanized-ribosome RFP mutants, fluorescence, 24 h; active compounds read low; DMSO median 0, no signal -100. 350,000 compounds, 1.6% hits;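 active = significant combined selectivity score with lowered wild-type GFP, culture density cut under 30%, mutant RFP and density less affected; inactive = any of these conditions unmet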; also: one replicate is shown; some compounds called inactive have numbers as strong as hits
rRNA inh HTS OD600 – recorded beside rRNA inh HTS, whose call it bears; OD600 change, %; measured here: OD600 growth;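 optical density of the mix in the first replicate; 0 = DMSO median and -100 = no signal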
rRNA inh HTS RFP – further read-out of rRNA inh HTS, marked with its call; RFP signal change, %; measured here: RFP humanized mutant strains;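 first replicate; 0 = DMSO median and -100 = no signal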
* = called active by the depositor; i = inactive; . = no result given; & = joins results of further samples.

SMILES	rRNA inh HTS	rRNA inh HTS OD600	rRNA inh HTS RFP
C[C@@H]1CN([C@H](C)CO)C(=O)c2cc(NC(=O)Nc3ccc4c(c3)OCO4)ccc2O[C@@H]1CN(C)C(=O)NC1CCCCC1	-1	-3	1.6
CN(C)CC(=O)N1CCCCN2[C@H](CO)[C@H](c3ccc(-c4cccnc4)cc3)[C@H]2C1	8	13	-4.0
C[C@@H]1CN([C@H](C)CO)C(=O)c2cccc(NC(=O)C3CCCCC3)c2O[C@@H]1CN(C)Cc1ccc(-c2ccccc2)cc1	-13	-15	2.4
C[C@H]1CN([C@@H](C)CO)C(=O)c2cccc(NC(=O)c3ccc(-c4nccs4)cc3)c2O[C@@H]1CN(C)S(C)(=O)=O	1	6	1.0
C[C@@H]1CN([C@@H](C)CO)C(=O)c2c(c3ccccc3n2C)-c2ccccc2CO[C@H]1CN(C)Cc1ccc(-c2ccccc2)cc1	-1	6	-5.6
COc1cc(Cn2c3ccc(NC(=O)CC(C)(C)C)cc3c(=O)n2C)ccc1F	-4	-9	-0.2
COc1ccc(OC)c(CN2C(=O)c3ccccc3C2c2nnnn2C2CCCC2)c1 (stereo unspecified)	-15	-22	-2.5
N#Cc1ccc(-c2ccc([C@@H]3[C@@H](CO)N4C(=O)CN(C(=O)C5CCCC5)C[C@H]34)cc2)cc1	-2	0	-1.1
O=C(C[C@@H]1C[C@H]2c3cc(NC(=O)c4ccc5c(c4)OCO5)ccc3O[C@H]2[C@H](CO)O1)NCCc1ccccc1	-3	-10	0.4
CCS(=O)(=O)Nc1ccc2c(c1)C(=O)N(C)C[C@@H](OC)[C@H](C)CN(C(=O)CN(C)C)[C@@H](C)CO2	-2	1	-1.5
COc1ccc2c3c([nH]c2c1)[C@@H](CO)N(Cc1ccccc1F)CC31CN(C)C1	2	0	-1.3
C[C@H](CO)N1C[C@H](C)[C@H](CN(C)S(=O)(=O)c2ccccc2)Oc2ncc(C#Cc3ccccc3F)cc2C1=O	9	7	2.2
CCCNC(=O)N1CC(=O)N2[C@H](CO)[C@@H](c3ccc(C#Cc4cccc(OC)c4)cc3)[C@H]2C1	-2	2	3.8
O=S(=O)(c1ccccc1)N1[C@@H]2CNC[C@H]1C2c1ccc(-c2ccccc2)cc1 (stereo partly specified)	-6&-29	2&-59	1.9&-8.3
C[C@H]1CN([C@@H](C)CO)C(=O)c2cc(C#Cc3cccnc3)cnc2O[C@@H]1CN(C)C(=O)CN(C)C	2	-1	-1.4
Cc1ccc(S(=O)(=O)N(C)C[C@H]2Oc3ccc(NC(=O)Cn4cnnn4)cc3C(=O)N([C@H](C)CO)C[C@H]2C)cc1	0	-7	-1.0
C[C@@H]1CN([C@H](C)CO)C(=O)c2cc(NC(=O)Nc3ccc(C(F)(F)F)cc3)ccc2O[C@H]1CN(C)Cc1ccc(C(=O)Nc2ccccc2N)cc1	-4	-2	6.9
COc1ccccc1CNC(=O)C[C@H]1CC[C@@H]2[C@H](COC[C@@H](O)CN2C(=O)Nc2ccc(F)cc2)O1	-2	3	-2.5
O=C(c1ccccc1F)N1CC(=O)N2[C@H](CO)[C@@H](c3ccc(-c4ccc(F)cc4)cc3)[C@@H]2C1	-40	-70	-6.4
C[C@H](CO)N1C[C@H](C)[C@H](CN(C)S(C)(=O)=O)Oc2ccc(NS(C)(=O)=O)cc2CC1=O	1	3	1.2
CCOc1ccc(CCN2C(=S)N([C@@H](Cc3ccc(O)cc3)CN3CCC[C@@H]3CN3C(=S)NC[C@@H]3CC(C)C)C[C@@H]2CC(C)C)cc1	19	16	0.5
C[C@@H]1CCCCO[C@H](CN(C)C(=O)CCC(F)(F)F)[C@H](C)CN([C@@H](C)CO)C(=O)c2cc(NS(=O)(=O)c3ccccc3)ccc2O1	-5	10	-5.5
CC(C)(C)S(=O)N1Cc2cc(C(=O)N3CCc4ccccc4C3)nc(-c3cccc(-c4ccncc4)c3)c2[C@H]1CCO (stereo partly specified)	1	0	0.2
C[C@@H]1CN([C@@H](C)CO)C(=O)c2cc(-c3ccc(F)cc3)cnc2O[C@H]1CN(C)C(=O)Cc1ccccn1	1	0	-2.7
CCCNC(=O)N(C)C[C@H]1Oc2cc(Br)ccc2S(=O)(=O)N([C@H](C)CO)C[C@H]1C	-2	-4	-1.1
(more compounds)
SMILES	rRNA inh HTS	rRNA inh HTS OD600	rRNA inh HTS RFP
CO[C@@H]1CC[C@@H]2CCN(C)C(=O)[C@@H](C)N(C)C(=O)c3cc(C#N)ccc3OC[C@H]1O2	5	14	-4.5
COCC(=O)NC[C@@H]1[C@H](c2ccc(C3=CCCC3)cc2)[C@H](CO)N1C(C)=O	i	.	.
CCCCCCNc1ccc(C(=O)OCC)cc1	8	5	-0.8
CC(=O)NCCNC(=O)C1(C)Cc2c(-c3cccc(NC(C)=O)c3)ccnc2O1 (stereo unspecified)	4	10	-1.7
COc1ccc2c3c(n(C)c2c1)[C@H](CO)N(C(=O)Nc1ccc(F)cc1)CC31CN(C(=O)c2cccnc2)C1	-7	-9	-1.4
COc1ccc(CN(C)C[C@H]2Oc3c(NS(=O)(=O)c4ccc(C)cc4)cccc3C(=O)N([C@H](C)CO)C[C@H]2C)cc1	0	4	-1.4
Cc1ccc(S(=O)(=O)Nc2ccc3c(c2)C(=O)N([C@H](C)CO)C[C@@H](C)[C@H](CN(C)S(=O)(=O)c2ccccc2)O3)cc1	-4	-8	1.8
CCC(=O)N1CCC2(CC1)CN(Cc1cccc(F)c1)[C@@H](CO)c1c2c2ccc(OC)cc2n1C	8	2	-4.0
C[C@H]1CN([C@@H](C)CO)C(=O)c2cc(NC(=O)C3CCCCC3)ccc2O[C@H]1CN(C)C(=O)Nc1ccc(C(F)(F)F)cc1	-15	-49	-3.7
O=C(Nc1ccc(F)cc1)N1CC(=O)N2[C@H](CO)[C@H](c3ccc(C#Cc4ccc(F)cc4)cc3)[C@@H]2C1	-10	-46	24
CO[C@@H]1CN(C)C(=O)c2ccc(NC(=O)C3CC3)cc2OC[C@@H](C)N(S(=O)(=O)c2ccc(Cl)cc2)C[C@H]1C	0	-8	2.4
CO[C@H]1CN(C)C(=O)c2ccc(NC(=O)C3CC3)cc2OC[C@H](C)N(Cc2cncnc2)C[C@@H]1C	-1	-1	-2.0
COC(=O)C[C@@H]1CC[C@@H]2[C@@H](COc3ccc(NC(=O)c4ccccc4OC)cc3C(=O)N2C)O1	-1	1	-1.4
COc1ccc(NC(=O)N(C)C[C@@H]2Oc3ccc(NC(=O)c4ccncc4)cc3CC(=O)N([C@H](C)CO)C[C@H]2C)cc1	9	11	-0.3
Cc1noc(C)c1NC(=O)N(C)C[C@H]1OCCCC[C@H](C)Oc2ccc(NS(=O)(=O)c3ccc(Cl)cc3)cc2C(=O)N([C@@H](C)CO)C[C@@H]1C	-1	-7	0.4
O=C(NCc1cccc(C(F)(F)F)c1)c1csc([C@H]2C[C@H](O)[C@@H](CO)O2)n1	2	0	-1.4
C[C@@H](O)C#Cc1ccc2c(c1)O[C@H](CN(C)C(=O)C1CC1)[C@@H](C)CN([C@@H](C)CO)S2(=O)=O	4	4	-1.6
O=C(NCC1CC1)[C@@H]1[C@@H](CO)[C@@H]2Cn3c(ccc(-c4ccccc4)c3=O)[C@H]1N2Cc1nccs1	1	0	0.6
Cc1ccc(Nc2n[nH]c(=S)s2)cc1C	0	-1	4.9
CCOc1ccc(NC(=S)N2CCC(C(=O)c3ccc(OC)cc3)CC2)cc1	-14*	-13*	2.0*
CCCN1[C@@H]2c3ccc(-c4ccc(C(=O)N(C)C)cc4)c(=O)n3C[C@@H]2[C@@H](CO)[C@@H]1C(=O)NCC	3	3	-0.9
C[C@H]1CN([C@@H](C)CO)C(=O)c2cc(C#CCc3ccccc3)cnc2O[C@@H]1CN(C)Cc1cccc(F)c1	-33	-54	3.3
CO[C@H]1CN(C)C(=O)c2cc(NS(=O)(=O)c3cccc(C)c3)ccc2OC[C@H](C)NC[C@@H]1C	2	2	-0.8
COc1ccc(C#Cc2ccc([C@H]3[C@@H](CO)N4C(=O)CN(C(C)=O)C[C@H]34)cc2)cc1	-4	0	-5.6
CCOC(=O)C1(C)CCN1C(=O)c1ccc(OC)c(C(F)(F)F)c1 (stereo unspecified)	4	0	2.2

Taken from above (two entries):
SMILES	rRNA inh HTS	rRNA inh HTS OD600	rRNA inh HTS RFP
CCCNC(=O)N(C)C[C@H]1Oc2cc(Br)ccc2S(=O)(=O)N([C@H](C)CO)C[C@H]1C	-2	-4	-1.1
CO[C@@H]1CC[C@@H]2CCN(C)C(=O)[C@@H](C)N(C)C(=O)c3cc(C#N)ccc3OC[C@H]1O2	5	14	-4.5

Continuation:
SMILES	rRNA inh HTS	rRNA inh HTS OD600	rRNA inh HTS RFP
C[C@@H]1CN([C@@H](C)CO)C(=O)Cc2cc(NS(=O)(=O)c3ccccc3)ccc2O[C@H]1CN(C)Cc1ccc(C(=O)Nc2ccccc2N)cc1	-6	-10	-2.7
CN(C)c1ccc2c(c1)[C@@H]1C[C@H](CC(=O)NCc3ccc(Oc4ccccc4)cc3)O[C@H](CO)[C@@H]1O2	-7	-12	1.6
COc1ccc([C@H]2C/C=C\C[C@@H](c3ccc4c(c3)OCO4)NC(=O)CCC(=O)N2)c(OC)c1	-6	3	-1.8
COc1cccc(S(=O)(=O)Nc2ccc3c(c2)[C@H]2C[C@@H](CC(=O)NCc4ccc(Cl)cc4)O[C@@H](CO)[C@H]2O3)c1	-4	-14	5.0
Cc1noc(C)c1S(=O)(=O)N(C)C[C@@H]1OCCCC[C@H](C)Oc2ccc(NS(C)(=O)=O)cc2C(=O)N([C@H](C)CO)C[C@@H]1C	-4	-10	-1.1
Cc1noc(C)c1S(=O)(=O)Nc1cccc2c1O[C@H](CN(C)C(=O)Nc1ccccc1)[C@H](C)CN([C@H](C)CO)C2=O	1	-2	-2.2
CC(C)NC(=O)Nc1ccc2c(c1)C(=O)N([C@H](C)CO)C[C@@H](C)[C@H](CN(C)S(=O)(=O)c1ccc(Cl)cc1)OCCCC[C@@H](C)O2	1	0	19
C/C=C/c1cnc2c(c1)C(=O)N([C@H](C)CO)C[C@H](C)[C@@H](CN(C)S(=O)(=O)c1cn(C)cn1)O2	0	3	-1.0
CN(C)c1cccc(CNC(=O)c2ccc3nc([C@@H]4O[C@H](CO)[C@H](O)[C@H](O)[C@H]4O)[nH]c3c2)c1	17	25	6.6
CC(C)CC#Cc1cnc2c(c1)C(=O)N([C@@H](C)CO)C[C@@H](C)[C@H](CN(C)Cc1ccc(F)cc1)O2	4	-5	10
CCC(=O)Nc1ccc2c(c1)OC[C@H](C)N(C(=O)c1cccnc1)C[C@@H](C)[C@@H](OC)CN(C)C2=O	3	3	-2.9
COC(=O)[C@]12CCCCC=C1N(Cc1ccco1)C(=O)[C@H](CC(=O)NCC1CCCCC1)C2	1	-9	1.6
OC[C@H]1[C@H](c2ccc(C#CC3(O)CCCC3)cc2)[C@@H]2CN(Cc3cncnc3)CCCCN12	3	2	1.9
Cc1ccc([N+](=O)[O-])cc1CN1CCN(c2ncc(Cc3ccccc3)cn2)CC1	9	10	11
Cc1ccc(-c2cnc3c(c2)C(=O)N([C@@H](C)CO)C[C@H](C)[C@@H](CN(C)CC2CCCC2)O3)cc1	7	10	-1.6
O=C(NCc1ccc(Cl)nc1)c1csc([C@@H]2O[C@H](CO)[C@H](O)[C@H](O)[C@H]2O)n1	5	13	-2.3
C[C@@H]1CN([C@H](C)CO)C(=O)c2cc(C#CCN(C)C)cnc2O[C@H]1CN(C)C(=O)CN1CCOCC1	-4	-6	-1.5
N#CC(=C1NC(=O)c2ccccc21)c1nc2ccccc2n1CCO	-28	-40	-1.3
CN(C)C(=O)C[C@@H]1CC[C@@H](NC(=O)C2CCC2)[C@@H](CO)O1	9	8	0.7
C/C=C/c1ccccc1[C@@H]1[C@@H](C#N)N(S(=O)(=O)c2cccc(F)c2)[C@H]1CO	-19	-55	15
CC1(C)CN(Cc2cccnc2)C(=O)[C@H]1CC(=O)Nc1ccc(Br)cc1	6	14	-3.9
O=C(C[C@H]1CC[C@@H](NC(=O)C2CCOCC2)[C@H](CO)O1)Nc1ccc(-c2ccccc2)cc1	0	0	-1.2
NC(=O)c1ncn2c(=O)n(CCCl)nnc12	16	18	1.1
O=C(C[C@@H]1C[C@@H]2c3cc(NC(=O)C4CCOCC4)ccc3O[C@@H]2[C@@H](CO)O1)NCCN1CCCCC1	1	8	0.9
COc1ccc(NC(=O)N2CCC3(CC2)CN(C(=O)c2cccnc2)[C@@H](CO)c2[nH]c4cc(OC)ccc4c23)cc1	-2	-3	-2.5
O=C(C[C@H]1C=C[C@H](NC(=O)c2ccncc2)[C@H](CO)O1)NCC1CC1	3	8	0.2
Cc1ccc(S(=O)(=O)N(C)C[C@@H]2Oc3c(NC(=O)Nc4cccc5ccccc45)cccc3C(=O)N([C@@H](C)CO)C[C@H]2C)cc1	2	6	-1.8

Grouped by structure: the entries above containing a CF3 group (5)
SMILES	rRNA inh HTS	rRNA inh HTS OD600	rRNA inh HTS RFP
C[C@@H]1CN([C@H](C)CO)C(=O)c2cc(NC(=O)Nc3ccc(C(F)(F)F)cc3)ccc2O[C@H]1CN(C)Cc1ccc(C(=O)Nc2ccccc2N)cc1	-4	-2	6.9
C[C@@H]1CCCCO[C@H](CN(C)C(=O)CCC(F)(F)F)[C@H](C)CN([C@@H](C)CO)C(=O)c2cc(NS(=O)(=O)c3ccccc3)ccc2O1	-5	10	-5.5
C[C@H]1CN([C@@H](C)CO)C(=O)c2cc(NC(=O)C3CCCCC3)ccc2O[C@H]1CN(C)C(=O)Nc1ccc(C(F)(F)F)cc1	-15	-49	-3.7
O=C(NCc1cccc(C(F)(F)F)c1)c1csc([C@H]2C[C@H](O)[C@@H](CO)O2)n1	2	0	-1.4
CCOC(=O)C1(C)CCN1C(=O)c1ccc(OC)c(C(F)(F)F)c1 (stereo unspecified)	4	0	2.2

The list is partial; rates above refer to the full screens.
